# Screening data as filed in PubChem.
# Cruzain noTriton: qHTS Assay for Promiscuous and Specific Inhibitors of Cruzain (without detergent) | Cruzipain (Trypanosoma cruzi), P25779 | purified cruzain, Z-FR-AMC fluorescence, no detergent | Potency, µM, inactives show max response, negative = inhibition, usual class: inhibitors | 200,000 compounds, 2.3% hits;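 further: plate controls were enzyme without inhibitor for no effect and buffer without enzyme for full effect; nearly all actives have a fitted effect of over 40% in size; top concentration of the series not given in the record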
# Target sequence (P25779 123-467 limits assumed): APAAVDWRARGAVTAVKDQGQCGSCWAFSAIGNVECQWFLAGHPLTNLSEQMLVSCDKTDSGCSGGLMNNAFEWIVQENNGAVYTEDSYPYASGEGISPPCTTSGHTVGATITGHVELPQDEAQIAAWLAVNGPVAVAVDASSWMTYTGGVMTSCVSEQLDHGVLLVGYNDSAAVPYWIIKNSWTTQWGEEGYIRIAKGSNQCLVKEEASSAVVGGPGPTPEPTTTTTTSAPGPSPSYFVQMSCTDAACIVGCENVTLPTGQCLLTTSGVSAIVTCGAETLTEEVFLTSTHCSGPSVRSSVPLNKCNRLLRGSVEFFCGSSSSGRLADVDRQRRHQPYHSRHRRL
#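 Purified cruzain at 1.5 nM, pre-incubated 15 min with compound at room temperature in 100 mM sodium acetate pH 5.5, 5 mM DTT, 0.00005% Triton X-100. Reaction started with 2 uM Z-FR-AMC; AMC fluorescence increase over 60 s gives rate.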
# Lassa entry inh: qHTS for Inhibitors of binding or entry into cells for Lassa Virus; AID 540256, 2011; Lassa virus pseudotype entry inhibition, cell reporter; control for the full effect not named in the record; Potency, µM (highest dose often 37.9 µM), without a hit: at the highest dose activity change, negative = inhibition, most hits filed as inhibitors; 300,000 compounds, 1.2% hits; active means well fitted inhibition curve with a large enough effect; inconclusive means small, poorly fitted or top-dose-only effect, or effect the other way; inactive means flat fitted curve, though single readings scatter; tested in HEK293 cells; further: on the % scale 0 is the no-effect control and ±100 the full control effect; nearly all actives have a fitted effect of over 50% in size; luciferase read-out
# StopGo reporter: High Throughput Screening for Foot and Mouth Disease Virus Antivirals | AID 1159524, 2015 | Potency, µM (highest dose often 57.9 µM), for the others: at the top dose signal change, negative = less light | human cells with a luciferase reporter of 2A StopGo recoding; control for the full effect not named in the record | 410,000 compounds, 1.2% hits; active = well fitted falling curve with a large enough effect; inconclusive = small, poorly fitted or top-dose-only effect; inactive = no such curve, though single readings can be large or run the other way; tested in HEK293T cells; further: on the % scale 0 is the no-effect control and ±100 the full control effect; nearly all actives have a fitted effect of over 45% in size; luciferase light after 4 h
# MARV entry inh: qHTS for inhibitors of binding or entry into cells for Marburg Virus | Marburg virus pseudotyped entry inhibition, cell reporter; control for the full effect not named in the record; about a third of the inactives were read at about 46 µM | Potency, µM (doses to about 37.8 µM), without a hit: top-dose activity change, negative = inhibition, usual class: inhibitors | 300,000 compounds, 1.8% hits; active = well fitted inhibition curve with a large enough effect; inconclusive = small, poorly fitted or top-dose-only effect, or effect the other way; inactive = flat fitted curve, though single readings scatter; tested in HEK293 cells; about a fifth of its hits are not listed in these tables; further: on the % scale 0 is the no-effect control and ±100 the full control effect; luciferase read-out
# RE007 growth inh: qHTS Assay for Inhibitors of the HIV-1 protein Vpr; Potency, µM (top dose mostly 92.2 µM), inactives show top-dose activity change, negative = less growth; AID 651644, 2012; S. pombe RE007 Vpr strain, BacTiter-Glo ATP luminescence, 24 h; control for the full effect not named in the record; 360,000 compounds, 0.21% hits; active = well fitted falling curve with a large enough effect; inconclusive = small, poorly fitted or top-dose-only effect; inactive = no such curve, though single readings can be large or run the other way;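 further: on the % scale 0 is the no-effect control and ±100 the full control effect; nearly all actives have a fitted effect of over 50% in size; the assay follows cell death caused by Vpr and the record does not say whether a fall means rescue or toxicity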
#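 Fission yeast strain RE007, carrying one chromosomally integrated HIV-1 vpr copy, was seeded at OD 0.01 in PMG+AL medium with 23 nL pinned compound. After 24 h at 30 °C and 99% humidity, viability was read by BacTiter-Glo luminescence.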
# SARS PLP yeast: qHTS of Yeast-based Assay for SARS-CoV PLP; S. cerevisiae expressing SARS-CoV PLpro, growth rescue; control for the full effect not named in the record; Potency, µM (highest dose often 32.9 µM), for the others: top-dose activity, positive = growth rescue; 330,000 compounds, 0.19% hits; AID 485353, 2010; active means well fitted rising curve with a large enough effect; inconclusive means small, poorly fitted or top-dose-only effect; inactive means no such curve, though single readings can be large or run the other way; further: 0% is about no effect; nearly all actives have a fitted effect of over 55% in size; growth read by luminescence after 48 h
# NS1 function inh: qHTS Assay for Inhibitors of Influenza NS1 Protein Function | S. cerevisiae slowed by influenza A NS1, growth recovery by OD600 | AID 2326, 2010 | 270,000 compounds, 0.4% hits | Potency, µM (series often up to 46.1 µM), without a hit: top-dose activity, positive = more growth; active means well fitted rising curve with a large enough effect; inconclusive means small, poorly fitted or top-dose-only effect; inactive means no such curve, though single readings can be large or run the other way; further: nearly all actives have a fitted effect of over 50% in size
#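 A cell-based growth assay was used: compounds that relieve NS1-induced slow growth of budding yeast raise OD600. Assay medium was yeast nitrogen base with ammonium sulphate and -URA supplement, pH 6.0, with 2% galactose.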
# Cruzain Triton: qHTS Assay for Promiscuous and Specific Inhibitors of Cruzain (with detergent); Potency, µM, inactives show max response, negative = inhibition, usual class: inhibitors; 200,000 compounds, 0.43% hits; purified cruzain, Z-FR-AMC fluorescence, 0.01% Triton; Cruzipain (Trypanosoma cruzi), P25779;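 further: plate controls were neutral wells for no effect and buffer without enzyme for full effect; nearly all actives have a fitted effect of over 40% in size; top concentration of the series not given in the record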
#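 Sodium acetate buffer (100 mM, pH 5.5) containing 5 mM DTT and 0.01% Triton X-100 hosted 1.5 nM cruzain and test compound for 15 min at room temperature. Cleavage of 2 uM Z-FR-AMC was then tracked by fluorescence.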
# * hit, by the source's call; ? = inconclusive; . = no result given; [ ] = remark or other dose. Unless noted, the call rests on the fitted dose curve; in most records, active means well fitted curve in the direction sought with a large enough effect; inconclusive means small, poorly fitted or top-dose-only effect, or another doubt; inactive means no such curve, though single readings can be large; an effect the other way counts as inactive or inconclusive. Potency means the concentration at half of the fitted maximal effect.
SMILES,Cruzain noTriton,Lassa entry inh,StopGo reporter,MARV entry inh,RE007 growth inh,SARS PLP yeast,NS1 function inh,Cruzain Triton
CCOc1ccc(C(=O)Nc2c3c(nn2-c2ccc(C)cc2)CS(=O)C3)cc1OCC (stereo not drawn),-1%,.,-10%,.,9%,4%,-38%,-3.9%
O=C(Nc1cc([N+](=O)[O-])ccc1N1CCOCC1)c1cccs1,.,.,-5%,.,0%,2%,2%,.
COc1ccc(NC(=O)CS(=O)c2ccc(Cl)c(Cl)c2)cc1 (stereo not drawn),.,20%[46.1 µM],0%,1%[46.1 µM],-7%,3%,1%,.
CCn1c(=O)c2c(nc(SCC(=O)NCC3CCCO3)n2C)n(C)c1=O (stereo not drawn),-2%,21%,-3%,-2%,3%,3%,-4%,2.6%
COc1ccccc1NC(=O)c1ccccc1-c1ccccc1C(=O)O,.,8%,-6%,9%[46.1 µM],1%,4%,5%,.
O=C(COC(=O)c1ccc2c(c1Cl)C(=O)c1ccccc1C2=O)NC1CCCCC1,?,11%[46.1 µM],-7%,10%[46.1 µM],-23%,-7%,1%,-6.7%
CC(=NC(C)c1ccccc1)c1c(O)[nH]c(=O)[nH]c1=O (stereo not drawn),-9%,7%,-10%,8%,-2%,1%,6%,-0.9%
COc1cccc(CNC(=O)c2ccc(Cl)c(NC3=NC4CS(=O)(=O)CC4S3)c2)c1 (stereo not drawn),.,.,1%,.,14%,-2%,-2%,.
O=C(OCC(=O)N1CCOCC1)c1ccccc1O,.,6%[46.1 µM],43%[activator],?,6%,-1%,19%,.
COc1ccccc1NC(=O)C(=O)NCCc1csc(-c2cccc(F)c2)n1,-4%,7%[46.1 µM],?,.,.,.,.,3.6%
O=C(C1CCCCC1)N1CCc2ccccc21,.,30%[46.1 µM],-14%,-27%[46.1 µM],5%,0%,.,.
Cc1cc(Cl)c(OCCN2C(=O)NC(C)(C)C2=O)c(Br)c1,1%,-1%,-17%,-27%,9%[3.69 µM],0%,-10%,-5.2%
CCCCCCCn1c(=N)n(CC(=O)c2ccco2)c2ccccc21,-3%,-30%,?,?,3%,0%,-1%,-5.5%
CC1(C)CC(=O)C(N=Nc2ccc(F)cc2)=C(O)C1,.,.,23%,.,7%,-1%,-2%,.
C=CCn1c(SCCNC(C)=O)nc2cc(-c3ccccc3)sc2c1=O,.,?,-3%,9%[46.1 µM],10%,3%,2%,.
COc1ccc(CCN(C)S(=O)(=O)c2ccc(Cl)nc2)cc1OC,.,26%[46.1 µM],?,?,5%,-1%,.,.
CCc1cc(=O)oc2cc(C)cc(OCC(=O)NC3CCN(Cc4ccccc4)CC3)c12,.,.,-15%,.,1%,-11%,13%,.
COc1cc2[nH]c(=S)n(C3CCCC3)c(=O)c2cc1OC,2%,-12%,-25%,-16%,-15%,-1%,-9%,1.3%
NC(=O)C1CCCN(C(=O)CCCNC(=O)c2ccc(Cl)cc2)C1 (stereo not drawn),.,-4%[46.1 µM],-12%,-1%[46.1 µM],5%,-4%,4%,.
CCCC(=O)NCn1nnc(-c2ccc(Cl)cc2)n1,.,?,30%[activator],?,-1%,-2%,.,.
Cc1ccc(SCC(=O)NN=C2CCN(C)CC2)cc1,.,?,1%,?,1%,-2%,-2%,.
COc1cc2nc(NCCc3cccc(C)c3)n3nc(-c4ccccc4)nc3c2cc1OC,1%,.,0%,10%[46.1 µM],.,.,.,1.6%
CCCn1c(SCC(=O)N2CCc3ccccc32)n[nH]c1=O,.,-21%,37%[activator],0%,-16%,-5%,.,.
O=C(CSc1nc(=O)n(Cc2ccco2)c2c1CCC2)NCc1ccccc1,-9%,2%[46.1 µM],33%[activator],.,.,.,.,-0.8%
O=C(Nc1nccs1)c1ccc[nH]c1=O,.,.,32%[activator],.,3%,3%,15%,.
Cc1nn2c(C)c(C(=O)NC(C)(C)C)cnc2c1-c1ccc(F)cc1,10%,1%[46.1 µM],1%,.,.,.,.,1.1%
C=CCN(C(=O)CCS(=O)(=O)c1cccc2nsnc12)c1ccccc1,.,-1%,57%[activator],0%[46.1 µM],-5%,-12%,-3%,.
CC(/C=N/n1c(-c2n[nH]c3c2CCC3)n[nH]c1=S)=C\c1ccco1,.,0%,-13%,-22%[46.1 µM],20%,-1%,13%,.
O=C(CN1C(=O)c2cccc3cccc1c23)NC1CCCC1,.,-8%[46.1 µM],29%,6%[46.1 µM],16%,-2%,1%,.
O=C(COC(=O)C1CC2CCCC(C1)C2=O)NNC(=O)c1ccc([N+](=O)[O-])cc1 (stereo not drawn),.,-1%,-2%,?,0%,2%,.,.
COc1ccccc1-n1cnnc1SC(C)C(=O)Nc1ccc(NC(C)=O)cc1 (stereo not drawn),.,?,7%,8%[46.1 µM],-14%,3%,.,.
CN1CCN(c2ccc(C(N)=O)cc2N)CC1,4%,?,-1%,5%,12%,-2%,5%,3.2%
O=S(=O)(c1ccc(NC(=S)NCc2ccncc2)cc1)N1CCCCC1,.,9%[46.1 µM],26%,?,5%,2%,0%,.
COC(=O)c1ccc(Cl)cc1NC(=O)Nc1nnc(N(C)Cc2ccccc2)s1,3%,-4%[46.1 µM],-18%,-1%[46.1 µM],.,.,.,-10%
COCC(=O)n1cc(C(=O)OC)c2ccccc21,-3%,-20%,7%,-6%[46.1 µM],-2%,-11%,6%,-2.6%
N#CCCN1CCCc2cc(N=Nc3ccc(C(F)(F)F)cc3)ccc21,.,1%[46.1 µM],19%,?,-4%,-4%,13%,.
O=C(Nc1cccc(S(=O)(=O)NC2=NCCCCC2)c1)c1cccnc1Cl,.,.,0%,.,0%,0%,3%,.
Cc1ccc(C)c(N2CCN(S(=O)(=O)c3c(C)noc3/C=C/N(C)C)CC2)c1,-6%,?,?,13µM*,55%,-22%,-7%,-7.2%
COc1ccc(/C=C2\CCc3ccccc3C2=O)cc1Cn1nc(C)cc1C,-4%,?,-9%,?,-17%,-24%,5%,-16%
Cc1ccc(CNC(=O)c2ccc(NC(=O)C3=CSCCO3)cc2)cc1,.,.,66%[activator],.,2%,8%,7%,.
O=C(Nc1nc2n(n1)C(c1ccc(Cl)cc1)C=C(c1ccccc1)N2)c1ccco1 (stereo not drawn),0%,1%[46.1 µM],-18%,4%[46.1 µM],.,.,.,-2.2%
Cc1cccc(-n2nnnc2S(C)(=O)=O)c1,-2%,?,25µM*,.,.,.,.,-0.3%
CC(C(=O)Nc1ccc(O)c(C(=O)O)c1)N1C(=O)/C(=C/c2cccs2)SC1=S (stereo not drawn),.,.,-22%,.,3%,3%,?,.
O=c1cc(O)nc(SCc2ccccc2)n1-c1ccc(Cl)cc1,.,-3%[46.1 µM],4%,-13%[46.1 µM],-18%,1%,.,.
COc1cccc(NC(=O)c2cc3ccccc3o/c2=N\O)c1,.,.,-67%,.,-28%,-19%,-82%,.
O=C(Nc1ccc(Cl)c(S(=O)(=O)N2CCOCC2)c1)c1cccs1,.,?,?,?,19%,-1%,.,.
COC(=O)c1ccc(NC(=O)CC2C(=O)N(c3cccc(OC)c3)C(=O)N2Cc2cccc(OC)c2)cc1 (stereo not drawn),2%,-14%[46.1 µM],-14%,.,.,.,.,-4.5%
CC(C)[C@H]1C(=O)Nc2ccccc2N1C(=O)N[C@@H](Cc1ccccc1)C(=O)N[C@@H](C(=O)O)c1ccccc1,.,.,-5%,.,8%,1%,29%,.
CC(C)N(C)CCOC(=O)C1COc2ccccc2O1 (stereo not drawn),.,.,?,.,9%,1%,4%,.
O=C(c1cccc(-n2cccc2)c1)N1CCN(S(=O)(=O)c2ccccc2)CC1,.,-15%,-24%,-12%[46.1 µM],0%,2%,.,.
# Next structures follow.
SMILES,Cruzain noTriton,Lassa entry inh,StopGo reporter,MARV entry inh,RE007 growth inh,SARS PLP yeast,NS1 function inh,Cruzain Triton
CC(O)(CS(=O)(=O)Cc1ccccc1)c1ccccc1 (stereo not drawn),.,.,-22%,.,-12%,1%,3%,.
O=C(Cn1c(NCCO)nc2ccccc21)NCC(F)(F)F,.,.,1%,.,-3%,1%,2%,.
CC(NO)/C(=N\O)c1cccs1 (stereo not drawn),1%,-13%,.,-3%,-6%,-3%,-5%,1.5%
O=C(Cc1cnn(-c2ccccc2)c1)c1ccc(O)c(O)c1O,-5%,?,2%,-1%,19%,?,-89%,-11%
CCCCNC(=O)C(c1ccc(OCC(=O)OC)c(C(=O)OC)c1)N(CCOC)C(=O)CCCCCN1C(=O)NC(c2ccc(-c3ccccc3)cc2)C(C(=O)OCc2ccccc2)=C1C (stereo not drawn),?,.,.,.,.,-1%,8%,0.5%
COC(=O)/C=c1/sc2n(c1=O)CCN=2,-2%,15%,-13%,0%,1%,-7%,-1%,-4.1%
O=C(O)c1cc(C(=O)O)cc(N2C(=O)CSC2=S)c1,.,.,32%[activator],.,5%,6%,-4%,.
COc1ccc(C2Nc3ccccc3C(=O)N2c2ccc(C)cc2)cc1COc1ccccn1 (stereo not drawn),3%,?,64%[activator],?,-7%,-4%,-4%,-4.9%
O=C(CN1C(=O)NC2(CCCC2)C1=O)OCCOc1cccc(Cl)c1,.,2%,-13%,2%,18%,1%,.,.
CC1=C(C(=O)Nc2ccccc2C(=O)N2CCC(C)CC2)SCCO1,.,.,0%,.,-5%,2%,1%,.
COc1ccc(CNS(=O)(=O)NCc2ccc(C)cc2)cc1OC,.,-4%[46.1 µM],-10%,?,0%,-2%,.,.
Oc1c(C(c2ccccc2Cl)N2CCOCC2)sc2nc(-c3ccco3)nn12 (stereo not drawn),-2%,3%[46.1 µM],-11%,.,.,.,.,-0.4%
Cc1cc(OCCCCNC(C)C)cc(C(C)C)c1,7%,?,-18%,15µM*,21%,-10%,-15%,0.7%
Cc1ccccc1NC(=O)c1ccc(CN2CCc3ccccc3C2)cc1,-1%,-7%,?,-10%,2%,1%,1%,0.1%
